Compound activity from PubChem.
Beta cell apopt – blocks beta cell apoptosis | hit rate 0.8% among 300,000 | protection from apoptosis, % (no concentration beside the values) | AID 435005 | INS-1E cytokine-induced death, ATP luminescence, 48 h; percent of positive-control rescue, neutral wells zero;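 active = all replicates at 75% or more, or half of them and the mean; inconclusive = half reach 75% but not the mean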;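 also: 0% = cytokine-treated negative control wells and 100% = positive control rescue; higher means more ATP so stronger rescue from cytokine killing; wells of about 40 µL received 100 nL stock; the first replicate is given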
ALR H2O2 inh – inhibitors of human sulfhydryl oxidase ALR. P55789. purified ALR, DTT oxidation, H2O2 HRP-luminol luminescence. inhibition, % (no concentration beside the values). hit rate 3.8% among 290,000. AID 485317;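 active = mean and each replicate at 75% or more; inconclusive = only one of the two met; inactive = neither met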;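 also: stock transfer was 7.5 nL into about 7.5 µL; 0% = neutral wells and 100% = wells with inactivated enzyme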
Beta2AR agonist – human beta-2 adrenergic receptor agonism by FAP; P07550; response, % (test concentration not listed); Am2.2-beta2AR cells, FAP receptor internalization, flow cytometry; reference of the scale not given here; hit rate 0.43% among 340,000;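 active = response above a set limit, near 3 SD of response in nonfluorescent compounds, cut at about 42% in these data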;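 also: stock transfer was 100 nL into about 11 µL; a reference agonist was the positive control; negative values mostly stem from fluorescent compounds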
LANA-H2B inh – blocks KSHV LANA binding to histone H2A/H2B; Q9QR71; cell-free LANA-H2A/H2B peptide, fluorescence polarization; inhibition, % (test concentration not listed); hit rate 0.6% among 320,000; AID 2629; in the data active = inhibition mostly above about 10%, no sharp cut-off; inactive = mostly below about 6.7%;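 also: stock transfer was 7.5 nL into about 10 µL; 0% = median of vehicle wells and 100% = median of positive control wells; one replicate is shown; the record names a cut of 25% in any replicate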
Target sequence (Q9QR71 whole entry, looked up): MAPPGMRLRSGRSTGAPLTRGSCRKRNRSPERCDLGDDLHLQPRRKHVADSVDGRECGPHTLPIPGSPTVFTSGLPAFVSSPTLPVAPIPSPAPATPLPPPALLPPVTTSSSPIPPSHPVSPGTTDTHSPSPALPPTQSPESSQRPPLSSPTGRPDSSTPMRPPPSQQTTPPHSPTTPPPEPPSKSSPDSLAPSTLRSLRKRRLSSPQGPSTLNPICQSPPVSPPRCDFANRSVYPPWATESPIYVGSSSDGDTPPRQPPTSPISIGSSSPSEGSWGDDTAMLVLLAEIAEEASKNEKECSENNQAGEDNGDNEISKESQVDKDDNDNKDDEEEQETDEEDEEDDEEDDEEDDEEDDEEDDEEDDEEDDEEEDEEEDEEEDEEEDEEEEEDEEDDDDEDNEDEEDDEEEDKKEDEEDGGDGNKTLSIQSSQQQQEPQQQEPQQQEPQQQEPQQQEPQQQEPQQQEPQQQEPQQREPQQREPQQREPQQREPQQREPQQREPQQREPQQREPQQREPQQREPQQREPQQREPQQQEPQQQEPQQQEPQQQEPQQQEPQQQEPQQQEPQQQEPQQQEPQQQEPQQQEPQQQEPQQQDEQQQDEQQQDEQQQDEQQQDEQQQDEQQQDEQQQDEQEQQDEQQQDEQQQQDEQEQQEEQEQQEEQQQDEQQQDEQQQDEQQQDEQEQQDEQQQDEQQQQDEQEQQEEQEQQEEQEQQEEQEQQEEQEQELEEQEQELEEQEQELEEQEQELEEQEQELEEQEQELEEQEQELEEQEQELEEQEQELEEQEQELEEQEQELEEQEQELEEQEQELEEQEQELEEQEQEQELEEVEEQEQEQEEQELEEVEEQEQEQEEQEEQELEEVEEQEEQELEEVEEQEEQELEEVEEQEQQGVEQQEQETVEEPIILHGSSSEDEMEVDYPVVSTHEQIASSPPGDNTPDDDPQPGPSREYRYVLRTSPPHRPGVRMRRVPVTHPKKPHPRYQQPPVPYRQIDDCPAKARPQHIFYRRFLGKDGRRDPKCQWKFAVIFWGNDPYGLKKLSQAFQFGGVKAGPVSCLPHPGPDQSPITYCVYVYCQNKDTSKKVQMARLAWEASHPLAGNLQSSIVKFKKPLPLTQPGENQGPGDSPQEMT
rRNA inh HTS – inhibits bacterial ribosomal RNA function over humanized ribosomes. E. coli WT GFP vs humanized-ribosome RFP mutants, fluorescence, 24 h; stronger effect = lower value; DMSO median 0, no signal -100. GFP signal change (wild-type ribosome), % (test concentration not listed). hit rate 1.6% among 350,000. AID 720706;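 active = significant combined selectivity score with lowered wild-type GFP, culture density cut under 30%, mutant RFP and density less affected; inactive = any of these conditions unmet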; also: one replicate is shown; some compounds called inactive have numbers as strong as hits
T cruzi repl – blocks replication of Trypanosoma cruzi | T. cruzi beta-gal in NIH3T3, luminescence, 90 h | inhibition, % (no concentration beside the values) | hit rate 1.4% among 300,000;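 active = mean inhibition across valid replicates above about 55%, limit read from the data; inconclusive = mean below that limit but half or more replicates reach it; inactive = mean below it, under half of replicates reach it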;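 also: signal also drops with host cell toxicity which is not excluded here; 0% = plate median of DMSO wells and 100% = zero luminescence signal; higher percent means less beta-gal luminescence so fewer parasites; stock transfer was 50 nL into about 50 µL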
Calb FLC – affects C. albicans growth with fluconazole; C. albicans CaCi-2 (fluconazole-resistant clinical isolate) + fluconazole, Alamar Blue growth, 48 h; growth inhibition, % (no concentration beside the values); hit rate 0.57% among 300,000;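 active = most replicates above 75%; inconclusive = exactly half above 75%; inactive = most below 75%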;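 also: all wells also contain fluconazole at 8 µg/ml as a sub-toxic cotreatment; 0% = median of DMSO wells and 100% = median of geldanamycin control wells; wells of about 8 µL received 7.5 nL stock; the first replicate is given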
Bfl-1 A1 inh – inhibitors of the anti-apoptotic protein A1, read as caspase activation; MEF A1-2A-BIM cells, Caspase-Glo 3/7 luminescence, 3 h; percent of clofoctol response, vehicle zero; caspase activation, % (no concentration beside the values); hit rate 0.066% among 330,000;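 active = over half of replicate activation scores above 10%, or exactly half above 10 with the replicate mean above 10; inconclusive = replicate mean below 10 yet half the replicates above 10; inactive = over half of replicates below 10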;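 also: wells of about 30 µL received 50 nL stock; many hits fall short of the cut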
rRNA inh HTS OD600 – also measured in rRNA inh HTS; calls as there; OD600 change, %; measured here: OD600 growth;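 optical density of the mix in the first replicate; 0 = DMSO median and -100 = no signal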
rRNA inh HTS RFP – second read-out of rRNA inh HTS, no call of its own (marks repeat the call); RFP signal change, %; measured here: RFP humanized mutant strains;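 first replicate; 0 = DMSO median and -100 = no signal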
* = called active by the depositor; i = inactive; u = inconclusive; x = no result given; & = joins results of further samples. An excerpt; count on the stated rates, not on these rows.

Each structure is followed by: LANA-H2B inh, Calb FLC, Beta cell apopt, T cruzi repl, ALR H2O2 inh, rRNA inh HTS RFP, Bfl-1 A1 inh, rRNA inh HTS, rRNA inh HTS OD600, Beta2AR agonist
- COc1ccccc1/C=N/NC(=O)c1ccc(=O)n(C)c1
  6.8, -19, -4, 2, -3, x, -0.3, x, x, 7
- Cn1ccnc1SCC(=O)Nc1ccc(SC(F)F)cc1
  -0.4, x, 3, x, x, -2.8, -1.9, -3, -5, 7
- CCCSc1nnc(Cn2c(=O)sc3ccccc32)n1-c1ccccc1
  1.8, -1, -2, 24, -2, 0.5, 0.6, -16, -34, -13
- CCC(=O)N(CCC1(c2ccccc2OC)CCOC(C(C)C)C1)Cc1ccco1 (configuration not stated)
  -0.2, -3, 6, x, x, -5.2, 0.2, -18, -9, -6
- O=C(O)CCC(=O)Nc1nc2nc(-c3ccccc3)cc(-c3ccccc3)n2n1
  -8.7, -11, -1, -8, 24, x, 0.3, x, x, -10
- CCN(CC)C(=O)[C@H]1CC(CC(=O)NCCN2CCOCC2)C(=O)N2CCc3c([nH]c4ccccc34)[C@]12C (some centres not stated)
  i, x, 0, x, 1, 2.2, 0.2, 20, 3, 5
- O=C(c1ccco1)N1CCN(C(c2coc3ccc(Cl)cc3c2=O)c2nnnn2C2CCCC2)CC1 (configuration not stated)
  -7.9, -1, -2, -7, 5, x, 1.8, x, x, -18
- Cc1c(C#N)c(O)[nH]c(=O)c1N=Nc1ccc(Br)cc1C(=O)O
  -9.6, 6, -2, -6, -25, 9.0, -2.1, 30, 25, 0
- COc1ccc2sc(-c3ccc(N(C)C)cc3)c(C#CCO)c2c1
  -7.8, x, 2, x, 3, -4.8, -0.7, 7, 6, -12
- CSc1nc(Cl)c(Cc2ccc(OCC(C)C)cc2)c(N2CCOCC2)n1
  -0.9, u, 6, 29, -7, -0.9, 0.1, 0, -1, 1
- COC(=O)CN(C(=S)Nc1ccc(F)cc1)C1CC(=O)N(c2ccccc2)C1=O (configuration not stated)
  3.4, -2, x, 3, 7, x, 1.4, x, x, 4
- COc1ccc(NC(=S)Nc2cc(C)cc(C)n2)cc1OC
  -6.6, 1, -3, -4, -8, 4.7, 0.0, -5, -11, 2
- CCOC(=O)C1CCN(Cc2nc3ccc([N+](=O)[O-])cc3c(=O)n2-c2ccc(OC)cc2OC)CC1
  4.3, 0, -3, 4, -9, -5.6, -0.3, 4, -3, -13
- Cc1cccc(N2CCN(C(c3ccccc3)c3nnnn3C(C)(C)C)CC2)c1C (configuration not stated)
  2.6, -7, -4, 14, -5, x, 0.5, x, x, 4
- COc1cccc(C(=O)N2C(C(=O)O)CSC2c2ccccc2Cl)c1 (configuration not stated)
  -0.1, 0, -3, 0, 5, -4.5, 0.4, -1, 13, 13
- O=C(NCC(c1ccco1)N1CCCCC1)c1ccc([N+](=O)[O-])s1 (configuration not stated)
  1.0, x, 0, x, -22, x, -1.2, x, x, x
- COc1ccc(-c2n[nH]c(C)c2-c2cnn(-c3ccccc3)c2)c(O)c1
  -3.8, 95*, -1, -1, 73, x, 0.6, x, x, -8
- CCc1ccccc1N(CC(=O)N1CCCCC1)S(=O)(=O)c1ccccc1
  -5.5, 9, -2, 26, -1, 0.4, 1.5, -2, -7, -4
- COc1cc2c(cc1OC)C(c1ccsc1)CC(=O)N2 (configuration not stated)
  -2.6, 0, -5, -7, 2, x, 2.8, x, x, -3
- Cc1cccc(N(CC(=O)N2CCOCC2)S(C)(=O)=O)c1C
  2.7, 21, -1, -4, -9, x, -0.1, x, x, -3
- CCOC(=O)c1ccc([N+](=O)[O-])cc1NC(C)=O
  1.4, -3, 2, 12, -17, -4.4, 0.0, 1, 6, 5
- CSc1nc(N)nc(SCC(=O)Nc2ccc(Cl)cc2)c1C#N
  -5.3, 3, 0, 14, -16, x, 0.7, x, x, -12
- Cc1ccc(S(=O)(=O)N(C)c2ccc(C(=O)NCC(c3cccs3)N3CCOCC3)cc2)cc1 (configuration not stated)
  -0.1, -3, -4, -8, -12, 5.0, -0.6, 22, 10, -1
- O=C1NCCc2c1[nH]c1ccc([N+](=O)[O-])cc21
  2.6, -1, -11, -15, -2, -3.2, 0.9, -2, -2, -4
- NC(=O)CC1Nc2cccc3cccc(c23)NC1=O (configuration not stated)
  9.8, 27, -5, 6, 27, x, -0.2, x, x, -5
- CC1CCCN(CCCNC(=O)CN2C(=O)CSc3ccc(S(=O)(=O)N4CCOCC4)cc32)C1 (configuration not stated)
  -0.8, 3, 0, -8, -2, 3.4, 0.8, 6, 21, 5
- CC(=O)c1ccc(N2CCN(S(=O)(=O)c3ccc4c(c3)CC(=O)N4)CC2)cc1
  -0.8, -1, 0, 12, -12, -1.9, 0.4, 2, 4, 0
- C=CCNC(=O)c1onc(CSc2cccc(OCC)c2)c1C(=O)O
  4.5, 11, -1, -8, 94*, -1.5, -0.8, -9, -19, 4
- Cc1cc(/N=C/C=C2\N(C)c3ccccc3C2(C)C)n(CCC#N)n1
  5.4, -11, 13, -4, 99*, x, 0.3, x, x, -2
- O=C(COc1ccc(S(=O)(=O)N2CCCC2)cc1Cl)N1CCN(c2ccccc2)CC1
  4.5, 1, 6, 0, -3, 30, 0.3, -13, -6, -8

More entries follow:
Each structure is followed by: LANA-H2B inh, Calb FLC, Beta cell apopt, T cruzi repl, ALR H2O2 inh, rRNA inh HTS RFP, Bfl-1 A1 inh, rRNA inh HTS, rRNA inh HTS OD600, Beta2AR agonist
- CCc1cccc(C)c1NC(=O)C1CCCN(S(C)(=O)=O)C1 (configuration not stated)
  3.6, 41, 1, 0, -5, 0.9, -1.8, -5, 5, 1
- CCOC(=O)CCCCCC(=O)Nc1ccc2c(c1)CC(=O)N([C@@H](C)CO)C[C@H](C)[C@@H](CN(C)Cc1ccccc1)O2
  0.4, x, 17, x, -2, 36, 0.1, -20, -6, 4
- O=C(NC1CC2CCCC(C1)N2C(=S)Nc1ccccc1Cl)C1CC1 (configuration not stated)
  -0.3, -4, -3, -3, x, -2.1, -0.2, 3, -1, -1
- COc1ccc(/C=C/C(=O)NCC(=O)N/N=C/c2cc(Br)ccc2OC)cc1
  5.5, 59, 6, 7, -12, x, -0.4, x, x, 7
- CCc1nc2sc3c(c2c(=O)o1)CCCC3
  2.8, 4, -2, -18, 6, x, -0.5, x, x, -4
- COc1ccccc1NC(=O)CCC(=O)Nc1ccccc1OC
  -2.8, -14, -3, -12, -4, x, 0.5, x, x, 1
- Cc1cccc(C)c1NC(=O)NC1(C(=O)NCC2CCCO2)CCCCC1 (configuration not stated)
  0.8, -2, -4, 1, -3, -0.7, 1.0, 3, 7, 8
- CCc1ccc(N2C(=O)CN(Cc3ccccc3)C2=S)cc1
  0.3, -5, -6, 18, 8, 5.3, 1.2, -3, 13, -5
- O=C(CSc1ccc(-c2ccccn2)nn1)Nc1cccc(F)c1
  -9.7, -12, 1, 36, -2, -6.0, -1.3, -46, -70, -3
- COc1cccc(NC(=S)NNC(=O)CCn2cc([N+](=O)[O-])cn2)c1
  3.6, -23, -11, 0, 83*, -0.2, 0.2, 11, 14, 4
- Cc1c(C(=O)OCC(=O)Nc2ccc(S(N)(=O)=O)cc2)oc2c1ccc1ccccc12
  -0.2, 16, x, -15, -3, 7.9, 2.4, 8, 15, -1
- S=C(Nc1ccccc1)Nc1ccccc1Br
  0.6, 5, -5, -1, x, 11, 2.2, -6, -6, 4
- O=C(COc1ccccc1)Nc1nnc(S(=O)(=O)Nc2ccccc2)s1
  0.7, -8, 0, 8, 4, -3.5, -0.2, -20, -42, 3
- CC(C)Sc1snnc1-c1ccccc1
  -1.4, -4, -3, -9, 7, 1.0, 0.7, 7, -6, -5
- CC(=O)Nc1nc(C2CC2)cc(-c2ccccc2)c1C#N
  4.6, -13, x, -10, 15, -2.8, -0.8, 5, -2, 3
- Cc1nnc(SCC(=O)NNC(=O)COc2ccc(Cl)cc2)s1
  6.4, -7, -7, -3, -3, -1.1, 0.1, 8, 7, 3
- COc1ccc(CCNC(=O)CSc2cc(=O)[nH]c(N)n2)cc1OC
  -4.3, 5, -6, 3, 58, x, 1.0, x, x, 8
- CC(C)c1nc2oc3c(NCc4ccccn4)ncnc3c2c2c1COC(C)(C)C2
  2.4, u, -7, -1, -3, -3.0, 0.2, -1, -1, -4
- N#Cc1ccc(C(=O)CN2CCN(c3ccccc3)CC2)cc1
  -1.4, 7, -5, 0, x, 2.3, 0.1, 0, 14, 2
- C=CCN1CCN(C(=O)c2ccc3c(c2)OCO3)CC1
  0.1, 2, 0, -3, -1, 0.0, -0.4, 4, 5, -1
- COc1ccc(CN2CC(=O)N(c3ccc(C)cc3C)C2=S)cc1OC
  2.6, -2, -5, -16, -8, 3.7, 0.0, -17, -9, -3
- CC(C)(C)c1csc(N/N=C/c2ccc(O)cc2)n1
  0.2, -19, x, 2, 55, 1.3, -0.1, -37, -63, 4
- CCCNc1nc(C)cc(-c2cc(-c3ccc(Cl)cc3)on2)n1
  4.8, 32, -1, -35, x, -1.1, 0.4, -1, 0, 0
- CCOc1cc2[nH]c(=S)n(Cc3ccc(C(=O)N4CCN(C)CC4)cc3)c(=O)c2cc1OCC
  0.1, -20, 8, 13, 0, -1.1, 0.3, 0, 6, 6
- CN(N)c1ccc2c(C(F)(F)F)cc(C(F)(F)F)nc2n1
  -7.7, -4, -5, 4, -19, 2.5, -0.7, 13, 5, -9
- COc1ccc(S(=O)(=O)Nc2ccc3c(c2)C(=O)N([C@@H](C)CO)C[C@H](C)[C@H](CN(C)S(=O)(=O)c2ccc(F)cc2)O3)cc1
  -0.9, x, -7, x, x, 4.8&4.6, -0.5, 0&2, -16&-18, 10
- COc1cc2c(cc1OC)-c1nnnn1C(C)(C)C2
  0.9, -10, 10, -5, 10, x, 1.0, x, x, 1
- COc1ccc(/C=N/NC(=O)c2ccoc2C)cc1CN1CCN(c2ccc(F)cc2)CC1
  -8.3, 8, x, 0, x, 2.3, -0.8, -5, -2, 3
- O=C(O)Cc1ccc(NC(=S)Nc2cccc(Cl)c2Cl)cc1
  2.4, -13, 2, -10, 0, x, 0.2, x, x, 2
- Cc1c(NC(=O)/C=C/C(=O)O)cccc1[N+](=O)[O-]
  -0.9, -5, -17, -5, x, x, 0.3, x, x, 4
